# High-throughput results: PubChem, National Center for Advancing Translational Sciences (NCATS)
# SmPrx2 inh = blocks S. mansoni peroxiredoxin 2 enzymatic activity. S. mansoni Prx2 activity coupled to TGR/GSH (TGR is thioredoxin glutathione reductase), NADPH fluorescence loss, qHTS; some inactives read as strong as hits. Potency, µM. 0.07% of 65,000 active. AID 448; active means full or partial inhibition curve with a strong effect at the top dose; inconclusive means weaker partial or single-point curve; inactive means no accepted curve; further: series up to 57 µM; many of its hits are not listed in these tables
#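 Enzyme mix: 100 uM NADPH, 25 nM TGR, 700 uM GSH, 50 nM Prx2 in 100 mM phosphate pH 7.4, 10 mM EDTA, 0.01% Tween-20. 15 min RT with compound; NADPH/GSH added, H2O2 starts reaction; NADPH fluorescence read 8 min.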
# LT uptake inh = anthrax lethal toxin internalization inhibition | Cells, anthrax lethal toxin internalization, FRET ratio (460/530) | AID 912 | 0.67% of 70,000 active | Potency, µM (series often up to 40 µM), without a hit: at the top dose activity change, negative = inhibition, actives largely listed as inhibitors; active = well fitted falling ratio curve with the 530 nm signal flat; inconclusive = other ratio curves, or a change in one channel alone; inactive = flat curves in the ratio and both channels; the % refers to the ratio; further: on the % scale 0 is the no-effect control and ±100 the full control effect; nearly all actives have a fitted effect of over 50% in size; tested in ME-180 cells; beta-lactamase reporter
# Starred values were filed as active, the others as inactive; ? = inconclusive; · = no result given; & = joins results of further samples; [ ] = dose if it differs, or a comment. Potency means the concentration at half of the fitted maximal effect. Not all compounds are listed; the hit share may differ from the screen's.
SMILES,SmPrx2 inh,LT uptake inh
CC(Cc1cccs1)NC(=O)NC1CCCCC1 (stereo not given),>57,-8%
CCN(C(=O)COc1ncnc2scc(-c3ccc(F)cc3)c12)C1CCS(=O)(=O)C1 (stereo not given),>57,-2%
COC(=O)CN(c1ccccc1)S(=O)(=O)c1ccccc1,·,2%
O=C(c1ccco1)N1CCN(c2ncnc3c2cnn3-c2ccccc2)CC1,>57,·
Nc1ccc([N+](=O)[O-])cc1,·,?
CC(=O)N1CCC2(CC1)CN(Cc1cc(C(F)(F)F)cc(C(F)(F)F)c1)C2,>57,5%
CC(C)OC(=O)c1nnc(Cc2ccc(F)cc2)o1,>57,0%
c1ccc2c(c1)ncn2CCn1cnc2ccccc21,>57,-15%
O=c1n(-c2ccccc2)c(=O)n(Cc2ccccn2)n1Cc1ccccn1,>57,-8%
COc1cccc(Nc2ncc3nc(CCc4ccccc4)c(=O)n(C[C@H]4CCCO4)c3n2)c1,>57,?
Cc1csc(SCC(=O)O)n1,>57,-2%
N#Cc1c(N)nc(-c2ccccc2)nc1-c1ccccc1,>57,-4%
O=C1Cc2c([nH]c3ccc(Br)cc23)-c2ccccc2N1,>57&>57,-18%&-14%
CCn1c(=O)cc(SCC(=O)NCc2ccccn2)c2ccccc21,>57,-3%
COc1ccc(OC)c(-c2cc(C(=O)N3CCN(c4ccccc4)CC3)no2)c1,>57,?
CCc1cccc(C)c1NC(=O)C1C2CCC(O2)C1C(=O)O (stereo not given),>57,-1%
CCOC(=O)C1CCN(C(=O)C2CCN(c3nc4ccc(OC)cc4s3)CC2)CC1,>57,4%
CCOC(=O)CNC(=O)C(=O)c1c(O)[nH]c2ccccc12,>57,16%
Cc1ccc(S(=O)(=O)c2nc(-c3ccc(F)cc3)oc2SCC(N)=O)cc1,>57,-6%
Cc1cc(OCC(=O)NC2CCS(=O)(=O)C2)c2c3c(c(=O)oc2c1)CCC3 (stereo not given),>57,-10%
CC(C)C(c1nnnn1Cc1ccc(F)cc1)N1CCN(C2CCCCC2)CC1 (stereo not given),>57,-15%
O=C1c2ccccc2C(=O)N1Cc1nc(-c2ccccc2)no1,>57,-6%
Cc1cc(C)n(CC(O)COc2ccccc2C(=O)Nc2ccccc2)n1 (stereo not given),>57,-17%
Cc1cc(C)cc(N(CC(=O)NCc2cccnc2)S(C)(=O)=O)c1,>57,3%
CC(=O)Nc1nonc1-c1nc2ccccc2n1CCC#N,>57,-13%
# Carrying on.
SMILES,SmPrx2 inh,LT uptake inh
CN1CCN(Cc2ccc(-c3ccc(Cl)cc3)o2)CC1,·,-4%
CN1CCN(c2ccc(N)c(N3CCN(C)CC3)c2)CC1,>57,13µM*
Cc1ncn(-c2ccccc2O)c1C,>57,-1%[8 µM]
O=S(=O)(NCCc1ccccc1)c1cccc(S(=O)(=O)N2CCOCC2)c1,>57,-4%
Nn1c(SCC(=O)Nc2ccc(F)cc2)nnc1-c1cccnc1,>57,7%
COc1ccc(/C(O)=C2\C(=O)C(=O)N(c3cc(C)on3)C2c2ccc(OC)c(OC)c2)cc1OC (stereo not given),>57,-17%
CC(CCc1nc2ccccc2s1)(c1ccc(O)cc1)c1ccc(O)cc1,>57,-11%[8 µM]
O=C(COC(=O)CNS(=O)(=O)/C=C/c1ccccc1)NC1CCS(=O)(=O)C1 (stereo not given),>57,-9%
O=C(CSc1nc(-c2ccco2)cc(C(F)(F)F)n1)N1CCc2ccccc2C1,>57,1%
COc1cccc([C@@H]2Oc3ccc(OC)cc3/C(=N/O[C@@H](C)CN3CCCCc4nc(C)c(C)cc43)[C@@H]2O)c1,·,4%[8 µM]
CCCCNC(=O)n1c(NC(=O)OC)nc2ccccc21,·,-16%
CC(=O)Nc1ccc(-c2nnn(CC(=O)c3ccccc3)n2)cc1Cl,>57,-7%
CN(C)c1ccc(NC(=O)Cn2cc3c(n2)CCCC3)cc1,>57,?
Cc1cccc(NC(=O)c2snc3c(=O)[nH]cnc23)c1,>57,6%
Fc1ccc(OCc2nc(-c3ccc(Br)o3)no2)c(F)c1,>57,?
Cc1cc(NC(=O)CSc2nnnn2Cc2ccccc2)no1,>57,12%
COc1cc(C(=O)Nc2ccc(S(=O)(=O)Nc3onc(C)c3C)cc2)cc(OC)c1OC,·,11%
O=C(CSc1nnc(-c2c[nH]c3ccccc23)o1)N1c2ccccc2CCc2ccccc21,>57,?
N#Cc1cccc(-c2cncnc2NCc2cccnc2)c1,>57,?
CCOc1ccc(-c2[nH]nc3c2C(c2ccc4c(c2)OCO4)C(C#N)=C(N)O3)cc1OC (stereo not given),>57,16%
CCC(Sc1nc2ccccc2[nH]1)C(=O)Nc1cc(C)on1 (stereo not given),>57,2%
O=C(O)c1ccc2cc[nH]c2c1,>57,-11%
COc1cccc(NC(=O)N2CCN(C(=O)C(Cc3ccc(OC)c(OC)c3)NC(C)=O)CC2)c1 (stereo not given),>57,-1%
COc1ccccc1-c1nn2c(C(F)(F)F)nnc2s1,>57,10%
Cc1nn2c(=O)nc3sc4c(c3c2[nH]c1=O)CCCC4,>57,?

# Full records, quoted from the list. Order of screens: SmPrx2 inh	LT uptake inh
# Entry for `Cc1cc(NC(=O)CSc2nnnn2Cc2ccccc2)no1` : >57	12%
# Entry for `N#Cc1cccc(-c2cncnc2NCc2cccnc2)c1` : >57	?
# Entry for `O=C(COC(=O)CNS(=O)(=O)/C=C/c1ccccc1)NC1CCS(=O)(=O)C1` (stereo not given) : >57	-9%
# Entry for `CC(=O)Nc1ccc(-c2nnn(CC(=O)c3ccccc3)n2)cc1Cl` : >57	-7%
# Entry for `CC(CCc1nc2ccccc2s1)(c1ccc(O)cc1)c1ccc(O)cc1` : >57	-11%[8 µM]

# New compounds follow
SMILES,SmPrx2 inh,LT uptake inh
COc1ccc(CCNC(=O)CSc2nc(C)nc3c2c(=O)n(C)c(=O)n3C)cc1OC,>57,22%
CCOc1cc(C2C3=C(CCCC3=O)NC3=C2C(=O)CCC3)ccc1OCCO,>57,?
Cc1cc(=O)[nH]c(SCc2nc3ccccc3s2)n1,>57,5%
CCC(=O)N1CCc2cc(S(=O)(=O)NC(C(=O)NCc3ccc(F)cc3)C(C)C)ccc21 (stereo not given),>57,-2%
CCCn1c(C)nc2c(NCCN3CCCCC3)nc(C)nc21,·,-9%
N#Cc1nc(COc2ccccc2)oc1N1CCOCC1,>57,-8%
CCC(=O)NCCn1c(C)cc2ccccc21,>57,-8%
Cc1ccc(C)c(/C(=N\N=C(N)N)C2CC2)c1,>57,2%[8 µM]
O=C(CN1C(=O)CC(c2ccccc2)=Nc2ccccc21)NCc1ccco1,>57,-3%
CS(=O)(=O)N(Cc1cc2ccccc2[nH]c1=O)C1CCCCC1,>57,-4%
c1nc(NCC2CCCO2)c2[nH]cnc2n1 (stereo not given),>57,?
CCOc1ccc(OCCN2C(=O)NC3(CCCc4ccccc43)C2=O)cc1 (stereo not given),>57,-2%
COC(=O)c1cc(-c2c(C)oc3cc(OC(C)C)ccc3c2=O)c(C)o1,>57,-8%
Cc1ccc(S(=O)(=O)N2CCC(C(=O)N[C@H](C(=O)N3CCN(C)CC3)C(C)C)CC2)cc1,>57,?
COc1ccc(N=C2SC(C(=O)O)CC(=O)N2C)cc1 (stereo not given),·,2%
COCC(=O)Nc1ccc(C)c(Cl)c1,>57,-12%
COc1cc(C2C(C#N)=C(N)Oc3c2oc(CO)cc3=O)cc(OC)c1OC (stereo not given),>57,-4%
CCCc1[nH]nc2c1C(c1cc(OC)ccc1F)C(C#N)=C(N)O2 (stereo not given),·,?
Brc1cccc(-c2nnco2)c1,>57,4%
COc1ccc(NC(=O)c2cc(=O)c3ccccc3o2)cn1,>57,-4%
c1ccc(-c2ccc(-c3ccccn3)nn2)nc1,>57,·
O=S(=O)(c1ccccc1)N1CCC2(CCCN(Cc3ccccc3)C2)CC1,>57,?
Nc1[nH]nc2nc(N3CCOCC3)nc(-c3ccccc3)c12,>57,-2%
Cc1cccc(O)c1C,·,-1%
CCOC(=O)N1CCN(c2c(N3CCN(c4ccccc4OC)CC3)c(=O)c2=O)CC1,>57,-4%
# Next part.
SMILES,SmPrx2 inh,LT uptake inh
CC(C)CC(C(=O)Nc1ccc2c(c1)OCCO2)N1C(=O)c2ccccc2C1=O (stereo not given),>57,-14%
CCOCCc1nnc(NC(=O)COC)s1,>57,0%
CCOc1cc(N2CCOCC2)c(OCC)cc1NC(=O)c1ccc(=O)n(Cc2ccccc2)n1,>57,-9%
CCN1CCN(C(=O)COc2ccc(S(=O)(=O)N(C)Cc3ccccc3)cc2)CC1,>57,2%
C/C=C1\C[N@@+]2(C)CC[C@@]34C(=C(C=O)[C@H]1C[C@H]32)Nc1ccccc14,?,?
CCOC(=O)C1C(=O)NC(N2CCN(c3ccccc3)CC2)=NC1c1ccco1 (stereo not given),>57,?
Cn1c(NCc2ccco2)nc2c1c(=O)n(Cc1ccc(Cl)cc1)c(=O)n2C,>57,8%
CC1CCC/C(=C\Nc2ccc3c(c2)OCO3)C1=O (stereo not given),>57,?
C=CCc1c(C)nc(SC)nc1Nc1ccc(C(=O)O)cc1,>57,-6%
CCOC(=O)c1ccc(NC(=O)CN2C(=O)CNC2=O)cc1,>57,1%
Cc1cc(C(=O)N2CCC(C(F)(F)F)n3nccc32)on1 (stereo not given),>57,9%
O=C(C1Cc2ccccc2CN1S(=O)(=O)c1cccs1)N1CCCCCC1 (stereo not given),>57,-4%
Cc1oc(-c2ccccc2F)nc1CS(=O)(=O)CC(=O)NCCCN(C)C1CCCCC1,>57,-6%
CC1=Nc2ncnn2C(c2ccccc2)/C1=N\O (stereo not given),>57,?
O=C1c2nc3ccccn3c2C(=O)N1Cc1ccccc1,>57,5%
CC(=O)C1=C(C)NC(=O)NC1c1cccc(O)c1 (stereo not given),>57,?
COc1ccc(C(=O)N2CCC[C@@]3(CCN(C(=O)Nc4cccc(F)c4)C3)C2)cc1,>57,-11%
COc1cccc(C2CC(c3ccc(C)cc3)n3nc(N)nc3N2)c1 (stereo not given),>57,6%
CCCCCC(=O)N1CCN(CCN=CC2=C(O)CC(c3ccco3)CC2=O)CC1 (stereo not given),>57,12%
COC(=O)c1nc(NC2=NCCCCC2)n[nH]1,>57,2%
O=C(O)CSC1CC(=O)N(c2ccc(Cl)cc2)C1=O (stereo not given),>57,-16%
CCOc1ccccc1/C=c1\sc2nc(-c3ccco3)nn2c1=O,>57,-28%
COc1cc(C(=O)OC2CCN(C)CC2)cc(OC)c1OC,>57,-5%
CC[C@H](C)C(=O)O[C@@H]1C[C@H](C)C=C2C=C[C@H](C)[C@@H](CC[C@H]3C[C@@H](O)CC(=O)O3)[C@H]21,·,?
COc1ccc(CCNC(=O)c2c(O)c3c([nH]c2=O)CCCC3)cc1,>57,-12%

# In another format: entries from further up
Structure: C=CCc1c(C)nc(SC)nc1Nc1ccc(C(=O)O)cc1
  SmPrx2 inh: >57
  LT uptake inh: -6%

Structure: CCOC(=O)c1ccc(NC(=O)CN2C(=O)CNC2=O)cc1
  SmPrx2 inh: >57
  LT uptake inh: 1%

# The list continues.
SMILES,SmPrx2 inh,LT uptake inh
O=C(c1ccccn1)N(CC1CCCO1)C1(C(=O)NC2CCCCC2)CCCCC1 (stereo not given),>57,3%
CCOC(=O)CSc1nc2ccccc2c(=O)n1NC(=O)c1ccccc1,>57,-17%
COc1ccc(N(C(=O)c2ccco2)S(=O)(=O)c2cc(OC)ccc2OC)cc1,>57,-2%
O=C(c1ccc2c(=O)n(-c3ccccc3)c(=O)[nH]c2c1)N1CCN(c2ccc(F)cc2)CC1,>57,7%
CN(C)Cc1ccccc1-c1nc(NCc2cccs2)c2ccccc2n1,>57,-25%
Cc1cc(C)nc(NS(=O)(=O)c2ccccc2)n1,>57,3%
CCC(C)NS(=O)(=O)c1ccc(NC(=O)c2c(-c3ccccc3)noc2C)cc1 (stereo not given),>57,-3%
O=C(NCCC1=CCCCC1)C1CCN(c2nnc(-n3cccc3)s2)CC1,>57,-10%
CC(OC(=O)c1cc[n+]([O-])cc1)C(=O)Nc1ccc(Cl)cn1 (stereo not given),>57,-4%
Cc1noc(C)c1-c1ccc2ncnc(NC3CC3)c2c1,>57,5%
COc1ccccc1C(=O)N(Cc1nc(-c2ccc(Cl)cc2)no1)C(C)C,>57,13µM*
Cc1ccc2c(CN3C(=O)NC4(CCCCC4)C3=O)cc(=O)oc2c1C,>57,-2%
O=c1c(Cl)c(NCCO)ncn1-c1ccccc1,>57,12%
NC(=O)c1c(-c2cccs2)csc1N,>57,?
CC1CCCCN1C(=O)CSc1nc(C2CC2)nc2c1cnn2-c1ccccc1 (stereo not given),>57,-3%
Cc1ccc2c(c1)C(c1ccccc1)N(C(=O)C(C)C)CC(=O)N2 (stereo not given),>57,-7%
CCC(=O)Nc1ccc(NC(=O)c2ccccc2Cl)nc1,>57,2%
CCOC(=O)C(C)n1cnc2c(nnn2-c2ccc(OC)cc2)c1=O (stereo not given),>57,26%
Cc1ccc(NC2=NCC(=O)N2c2ccc3c(c2)OCCO3)c(C)c1,>57,-13%
NS(=O)(=O)c1cccc2cccnc12,>57,-11%
CCOC(=O)c1c(C)oc(/N=C/c2ccccc2O)c1C#N,>57,5%

# Pulled by compound from the list above, three records:
SMILES,SmPrx2 inh,LT uptake inh
Cc1ccc2c(CN3C(=O)NC4(CCCCC4)C3=O)cc(=O)oc2c1C,>57,-2%
CCOC(=O)CSc1nc2ccccc2c(=O)n1NC(=O)c1ccccc1,>57,-17%
CC1CCCCN1C(=O)CSc1nc(C2CC2)nc2c1cnn2-c1ccccc1 (stereo not given),>57,-3%
